VDR inhibitor – vitamin D3 receptor (human) inhibition; P11473; VDR-SRC2-3 peptide fluorescence polarization, 2 h; Potency, µM, for the others: max response, negative = inhibition, hits mostly inhibitors; 400,000 compounds, 0.93% hits; active = well fitted inhibition curve with a large enough effect; inconclusive = small, poorly fitted or top-dose-only effect, or another doubt; inactive = no such curve, though single readings can be large or run the other way; note: series mostly up to about 120 µM
Target sequence (P11473 whole entry, looked up): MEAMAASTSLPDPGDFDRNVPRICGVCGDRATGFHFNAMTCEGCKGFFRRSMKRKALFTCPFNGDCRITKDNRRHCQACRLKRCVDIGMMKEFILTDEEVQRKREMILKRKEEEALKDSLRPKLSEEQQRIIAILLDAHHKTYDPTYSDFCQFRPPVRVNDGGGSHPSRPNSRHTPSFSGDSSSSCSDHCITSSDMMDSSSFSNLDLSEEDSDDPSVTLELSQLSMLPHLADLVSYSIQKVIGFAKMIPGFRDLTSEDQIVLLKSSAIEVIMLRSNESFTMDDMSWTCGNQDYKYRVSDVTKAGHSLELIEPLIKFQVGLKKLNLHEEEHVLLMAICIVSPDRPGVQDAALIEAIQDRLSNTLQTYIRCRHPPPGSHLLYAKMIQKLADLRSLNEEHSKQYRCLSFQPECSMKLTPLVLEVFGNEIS
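Signal is fluorescence polarization, reporting how far test compounds block the interaction of VDR with the SRC2-3 coregulator peptide after a 2 h room-temperature incubation.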
Active calls of the source: *; & = joins results of further samples; [ ] = another dose, or the depositor's remark. % is set by controls: 0 for no effect and ±100 for the full control effect; potency is the fitted concentration of half-maximal effect.

Preview, 7 compounds:
Screening CCOc1c(Cl)cc(/C=C/C(=O)N(CC)CC(=O)NCc2cccs2)cc1OC returned VDR inhibitor -12%.
`Cc1cccc(C)c1N1CCN(C(=O)Cn2cncn2)CC1` gave VDR inhibitor -19%.
For O=C(COC(=O)c1cccnc1Cl)NCc1ccco1 the results were VDR inhibitor 1%.
Fc1ccc(N2N=C(c3cccs3)CC2c2ccccc2)cc1 (stereo not drawn) was read as VDR inhibitor 7%.
Screening Cc1cc(C)c(OCC(O)CN2CCN(C(=O)c3ccccc3)CC2)c(C)c1 (stereo not drawn) returned VDR inhibitor -27%.
`COc1ccccc1NC(=O)COC(=O)c1ccccc1C(=O)N1CCN(c2ccccc2)CC1` gave VDR inhibitor 0%.
Screening Brc1cc2c(cc1C1OCCCO1)OCO2 returned VDR inhibitor 3%.

All compounds of this part, from the start:
Screening CCOc1c(Cl)cc(/C=C/C(=O)N(CC)CC(=O)NCc2cccs2)cc1OC returned VDR inhibitor -12%.
`Cc1cccc(C)c1N1CCN(C(=O)Cn2cncn2)CC1` gave VDR inhibitor -19%.
For O=C(COC(=O)c1cccnc1Cl)NCc1ccco1 the results were VDR inhibitor 1%.
Fc1ccc(N2N=C(c3cccs3)CC2c2ccccc2)cc1 (stereo not drawn) was read as VDR inhibitor 7%.
Screening Cc1cc(C)c(OCC(O)CN2CCN(C(=O)c3ccccc3)CC2)c(C)c1 (stereo not drawn) returned VDR inhibitor -27%.
`COc1ccccc1NC(=O)COC(=O)c1ccccc1C(=O)N1CCN(c2ccccc2)CC1` gave VDR inhibitor 0%.
Screening Brc1cc2c(cc1C1OCCCO1)OCO2 returned VDR inhibitor 3%.
For COc1cc(/C=N/NC(=Nc2ccc(C)cc2)c2nc3ccccc3s2)ccc1O the results were VDR inhibitor 19%.
For c1ccc2c(c1)[nH]c1c(N3CCC4(CC3)OCCO4)ncnc12 the results were VDR inhibitor -4%.
`Cc1c(Br)c([N+](=O)[O-])nn1C(C)C(=O)N1CCCc2ccccc21` (stereo not drawn) gave VDR inhibitor -9%.
Screening O=S(=O)(Nc1ccccc1O)c1cccc2cccnc12 returned VDR inhibitor 8%.
Screening COc1ccc(CC(=O)N2CCN(c3ccc(C4=NNC(=O)CC4C)cc3)CC2)cc1 (stereo not drawn) returned VDR inhibitor -1%.
`O=C(Cc1n[nH]c(=O)c2ccccc12)Nc1ccc(-c2nnc3n2CCCCC3)cc1` gave VDR inhibitor 0%.
Screening COc1ccccc1/C=[N+](\[O-])C1SC(=S)N(C)C1(C)C (stereo not drawn) returned VDR inhibitor -29%.
`O=C(N/N=C/c1ccc([N+](=O)[O-])o1)c1ccc(O)cc1` gave VDR inhibitor -5%.
For CSc1ccccc1NC(=O)CN(C)CC(=O)Nc1ccccc1C(F)(F)F the results were VDR inhibitor -25%.
`COc1ccc(N2Cc3ccc(OC)c(OC)c3C2=O)cc1` gave VDR inhibitor 23%.
For Cc1c(Nc2cc(N3CCCC(C)C3)c3nonc3c2[N+](=O)[O-])c(=O)n(-c2ccccc2)n1C (stereo not drawn) the results were VDR inhibitor -1%.
Cc1ccccc1N(C(=O)Cc1c[nH]c2ccccc12)C(C(=O)NC1CCCCC1)c1ccco1 (stereo not drawn) was read as VDR inhibitor -2%.
For C=CCSc1ncc(-c2ccccc2)cn1 the results were VDR inhibitor 12%.
Cc1cc(C(=O)N/N=C2\CC(=O)CC(C)(C)C2)c2ccccc2n1 was read as VDR inhibitor 4%.
For Cc1cc(NC(=O)C2C3C(=O)N(CCC(C)C)C(C(=O)NCc4ccccc4)C34C=CC2(C)O4)no1 (stereo not drawn) the results were VDR inhibitor -1%.
Screening CCCCNc1nnc(SCC(=O)c2c(N)n(CCC)c(=O)[nH]c2=O)s1 returned VDR inhibitor 0%.
For CC[C@@H](C)[C@@H]1CN([C@@H](C)CN2CCC[C@H]2CN2C(N)=NC[C@@H]2Cc2ccccc2)C(=N)N1CCCC1CCCC1 the results were VDR inhibitor -6%.
Screening CCN(CC)C(=O)c1ccc(COc2ccc(Cl)c(C)c2)o1 returned VDR inhibitor -21%.
CCc1ccc(N2CC(C(=O)Nc3ccccc3F)CC2=O)cc1 (stereo not drawn) was read as VDR inhibitor -2%.
For O=[N+]([O-])c1cc(/C=N/OCc2c(Cl)cccc2Cl)ccc1N1CCOCC1 the results were VDR inhibitor 2%.
`COC(=O)c1c(NC(=O)CSc2nnc(-c3ccco3)n2Cc2ccccc2)sc(C)c1C` gave VDR inhibitor -11%.
CC(=O)Nc1c(C(=O)C2CC2)oc2ccccc12 was read as VDR inhibitor 19%.
Screening CCC(SC1=NCCS1)C(=O)Nc1ccc(S(N)(=O)=O)cc1 (stereo not drawn) returned VDR inhibitor -21%.
Screening COc1ccccc1C1OCC(C)(C)CO1 returned VDR inhibitor 0%.
For COc1ccc2c(c1OC)C(=O)N(c1nccs1)C2 the results were VDR inhibitor 3%.
Screening Brc1ccc(-c2nc3ncccn3c2NC2CCCCC2)o1 returned VDR inhibitor -20%.
For CSCC(NS(=O)(=O)c1ccc(C)cc1)C(=O)O (stereo not drawn) the results were VDR inhibitor -11%.
Cc1ccc(C(=O)NNc2ncnc3c2cnn3C)cc1 was read as VDR inhibitor -3%.
Screening CCN(CC)Cc1cc(NC2=NS(=O)(=O)c3ccccc32)ccc1OC(=O)C(C)C returned VDR inhibitor -1%.
Screening O=S(=O)(c1ccccc1)C1(C2CC(c3ccccc3)=NO2)CC(O)C1 (stereo not drawn) returned VDR inhibitor -12%.
Screening CC(C)(C)c1ccc(NC(=O)COC(=O)c2ccc(CN3CCCC3=O)cc2)cc1 returned VDR inhibitor 0%.
For CC(OC(=O)c1ccco1)C(=O)NCc1ccc2c(c1)OCO2 (stereo not drawn) the results were VDR inhibitor -14%.
`Cc1cc(C)nc(Nc2ccc(C)c([N+](=O)[O-])c2)n1` gave VDR inhibitor 28%.
Cc1ccc(CNC(=O)COC(=O)Cc2ccc(-c3ccccc3)cc2)cc1 was read as VDR inhibitor -19%.
For CCCNC(=O)C1CCC(CNS(=O)(=O)c2ccc3c(c2)CC(C)N3C(C)=O)CC1 (stereo not drawn) the results were VDR inhibitor -3%&0%.
Screening CNC(=O)C1CC(=O)N(Cc2ccc3c(c2)OCO3)C(=Nc2ccc(F)cc2)S1 (stereo not drawn) returned VDR inhibitor 13%.
For N#Cc1ccccc1OCC(=O)N1CCN(S(=O)(=O)c2ccc(Cl)cc2)CC1 the results were VDR inhibitor 10%.
CC(C)CC(=O)NC(c1cccs1)c1ccc2cccnc2c1O (stereo not drawn) was read as VDR inhibitor 15%.
`Cc1nc([N+](=O)[O-])cn1CC(=O)c1ccc(OC(F)(F)F)cc1` gave VDR inhibitor 11%.
`O=C(NC(=S)Nc1ccc(N2CCCC2)cc1)c1ccccc1[N+](=O)[O-]` gave VDR inhibitor 0%.
`COc1ccc(C(=O)NC(=S)NNC(=O)c2ccncc2)cc1Br` gave VDR inhibitor -18%.
Screening CC(C)(O)c1cc(=O)sc2nc3ccccc3n12 returned VDR inhibitor -2%.
`OCC1CCN(Cc2nc(Cc3ccccc3Cl)no2)CC1` gave VDR inhibitor 9%.

Part of the list above in order of formula weight, low to high:
For COc1ccc2c(c1OC)C(=O)N(c1nccs1)C2 the results were VDR inhibitor 3%.
For c1ccc2c(c1)[nH]c1c(N3CCC4(CC3)OCCO4)ncnc12 the results were VDR inhibitor -4%.
Screening COc1ccc(CC(=O)N2CCN(c3ccc(C4=NNC(=O)CC4C)cc3)CC2)cc1 (stereo not drawn) returned VDR inhibitor -1%.

Following part:
`CN(C)S(=O)(=O)c1ccc(NC(=O)C2CC(=O)N(Cc3ccccc3Cl)C2)cc1` (stereo not drawn) gave VDR inhibitor 15%.
COc1ccccc1NC(=O)c1oc2ccccc2c1NC(=O)c1cccc(OC)c1OC was read as VDR inhibitor -25%.
COc1ccc(CCNC(=O)C2CCCN(S(=O)(=O)c3ccc4c(c3)oc(=O)n4C)C2)cc1OC (stereo not drawn) was read as VDR inhibitor -16%.
C=CCSc1ncccc1C(=O)NCc1ccccc1 was read as VDR inhibitor -4%.
`C=CCc1ccccc1OCCn1nnc2ccccc21` gave VDR inhibitor 1%.
For O=c1cc(N/N=C/c2ccccc2)[nH]c(=O)[nH]1 the results were VDR inhibitor -12%.
Screening O=C(c1cc2cc(F)ccc2[nH]1)N1CCN(Cc2ccc3c(c2)OCO3)CC1 returned VDR inhibitor -4%.
COc1cc(OC)cc(-c2nc(-c3cccs3)no2)c1 was read as VDR inhibitor 4%.
`CC(C)NS(=O)(=O)c1ccc(CCC(=O)N2CCc3ccccc3C2)cc1` gave VDR inhibitor -8%.
N/C(=N\OC(=O)c1cnn(-c2ccccc2)c1C(F)(F)F)c1cc(C(F)(F)F)cc(C(F)(F)F)c1 was read as VDR inhibitor 5%.
Cc1nc(C)c(C(=O)NNS(=O)(=O)c2ccccc2)s1 was read as VDR inhibitor -10%.
Screening COCC1CCN(C(=O)c2ccc(OC)c(OC3CCN(C(C)C)CC3)c2)CC1 returned VDR inhibitor -17%.
`CCn1nc(CC(=O)Nc2nnc(CC(=O)N3CCCCC3)s2)c2ccccc2c1=O` gave VDR inhibitor -5%.
`CCCCn1c(N)c(N(CCOC)C(=O)COC(=O)CCOc2ccccc2C)c(=O)[nH]c1=O` gave VDR inhibitor -12%.
Cc1onc(-c2c(F)cccc2Cl)c1C(=O)Nc1cccc(S(=O)(=O)N2CCOCC2)c1 was read as VDR inhibitor -11%.
`O=C(Nc1cccc2ccccc12)N1CCN(Cc2ccccc2)CC1` gave VDR inhibitor -6%.
For O=C(CSc1nccc(=O)[nH]1)c1ccco1 the results were VDR inhibitor -10%.
For O=[N+]([O-])c1cccc(C(=S)N2CCN(c3ccccc3)CC2)c1 the results were VDR inhibitor inconclusive.
For O=C(Nc1ccc(F)cc1)N1CCCC(c2nc3c(nnn3Cc3ccccc3Cl)c(=O)[nH]2)C1 (stereo not drawn) the results were VDR inhibitor 13%.
Screening CCCCNC(=O)c1ccc2c(c1)N(CC)C(=O)c1ccccc1S2 returned VDR inhibitor 8%.
`CCC1/C(=N\O)CC(c2ccco2)NC1c1ccco1` (stereo not drawn) gave VDR inhibitor 14%.
For COc1ccc2c(CC(=O)OCC(=O)Nc3ccc4c(c3)OCO4)coc2c1 the results were VDR inhibitor 18µM*.
`Cc1ccc(-n2c(SCC(=O)NCC3CCCO3)nc3n[nH]c(C)c3c2=N)cc1Cl` (stereo not drawn) gave VDR inhibitor -5%.
O=C(NCCCc1nc2ccccc2n1Cc1ccc(Cl)cc1)C1CCCCC1 was read as VDR inhibitor -17%.
Screening Cn1c(Cn2c3ccccc3c3ccccc32)n[nH]c1=S returned VDR inhibitor -1%.
`O=C(COC(=O)c1cc([N+](=O)[O-])ccc1N1CCOCC1)c1ccc(Br)cc1` gave VDR inhibitor -9%.
O=c1ccc(-c2ccccc2)nn1Cc1ccccc1F was read as VDR inhibitor -4%.
For CC(=O)N1CCN(C(=O)CSc2nnc(C)n2-c2ccccc2)CC1 the results were VDR inhibitor -29%.
Screening Cc1cc2cc3c(cc2nc1SCC(=O)Nc1nc(C)c(C)s1)OCO3 returned VDR inhibitor 4%.
Screening Cc1ccc(NC(=O)Cn2nnc3ccccc32)cc1 returned VDR inhibitor 16%.
`CN(C)CCCN1C(=O)C(O)=C(C(=O)c2cc3ccccc3o2)C1c1ccccn1` (stereo not drawn) gave VDR inhibitor -2%.
Screening CCCc1cc(=O)oc2c(C)c(OCC(=O)Nc3ccc(CN4CCOCC4)cc3)ccc12 returned VDR inhibitor 6%.
For C(=Nc1cccc2c(N=Cc3ccco3)cccc12)c1ccco1 the results were VDR inhibitor -17%.
For CCOC(=O)/C=C1/SCC(=O)N1CCOc1cccc(Br)c1 the results were VDR inhibitor 39%[activator].
Screening O=C(Cc1ccc([N+](=O)[O-])cc1)N/N=C/c1cccnc1 returned VDR inhibitor 7%.
C=C(C)C(=O)N1CC2(CC(c3cccc(NC(=O)CCCCC)c3)=NO2)C[C@H]1C(N)=O (stereo partly drawn) was read as VDR inhibitor 2%.
`Cc1ccc(CNC(=O)C2CCCN(c3nc(C)cc(C)n3)C2)cc1` (stereo not drawn) gave VDR inhibitor -10%.
Screening O=C(c1ccco1)N1CCN(c2ccc(Cl)c(Cl)c2)CC1 returned VDR inhibitor 3%.
`COc1cccc(C(=O)Nc2ccc(NC(C)=O)cn2)c1` gave VDR inhibitor 15%.
`O=C1NCCN1CCNS(=O)(=O)c1ccc(F)c(Cl)c1` gave VDR inhibitor -16%.
`COc1ccccc1CNC(=O)COC(=O)COc1ccccc1F` gave VDR inhibitor 0%.
`Cc1cnn(C(=O)c2cc(-c3ccccc3)nc3ccccc23)c1` gave VDR inhibitor 3%.
O=C(Nc1cccn(Cc2ccccc2)c1=O)NC1CCCCC1 was read as VDR inhibitor -6%.
Screening CCNC(=S)Nc1ccc2c(c1)oc1ccccc12 returned VDR inhibitor 8%.
Cc1cc(-c2ccc(S(=O)(=O)Nc3ccccc3C)cc2)on1 was read as VDR inhibitor -5%.
Cc1nc(Nc2ncc(C(=O)Nc3c(C)cccc3Cl)s2)cc(N2CCN(CCO)CC2)n1 was read as VDR inhibitor 1%.
Screening Nc1nncn1C(=O)c1c(Cl)cccc1Cl returned VDR inhibitor 7%.
`COC(=O)c1cnn2c1C(=O)N(Cc1cccs1)CC2` gave VDR inhibitor 26%.
Screening Cc1ccc(CSc2nnc([C@@H]3CCCN3)o2)cc1 returned VDR inhibitor -9%.
`Cc1ccc(S(=O)(=O)NCCC(=O)OCC(=O)Nc2cccc(S(=O)(=O)NC3=NCCCCC3)c2)cc1` gave VDR inhibitor -14%.
`COc1ccc(N2CCN(c3ccc(S(=O)(=O)N(C(C)C)C(C)C)cn3)CC2)cc1` gave VDR inhibitor -7%.
For O=C1c2ccccc2NC(c2ccc(Cl)cc2Cl)N1Cc1ccccc1 (stereo not drawn) the results were VDR inhibitor -3%.
`O=C(OCC(=O)c1ccccc1Cl)C1=NN(c2ccccc2)C(=O)CC1` gave VDR inhibitor 10%.
CCOC(=O)C1C(c2ccc([N+](=O)[O-])cc2)C2C(=O)NN=C2CC1(C)O (stereo not drawn) was read as VDR inhibitor -5%.

Assay outcomes (PubChem BioAssay)

This is a subset; count on the stated rates, not on these rows.
